DUX4 inh: DUX4-mediated transcription inhibition | 293T-iDUX4 ZSCAN4-Gaussia luciferase reporter, 24 h; active compounds read low | activity change, negative = inhibition, % (test concentration not listed) | 0.8% of 37,000 active | AID 1224904;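 active = -10% or lower and over 25 points stronger than a control reporter; inconclusive = -10% or lower with a smaller gap; inactive = above -10%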;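 note: 0% = median of neutral control wells and -100% = median of positive control wells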
DUX4 inh difference: recorded beside DUX4 inh, whose call it bears; Gaussia minus Italica difference, %; measured here: selective DUX4 reporter inhibition;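 worked out from the two reporters; negative = selective loss of the DUX4 reporter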
DUX4 inh control: further read-out of DUX4 inh, marked with its call; activity change, negative = inhibition, %; measured here: Italica tet-on control reporter;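 0 = neutral control and -100 = positive control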
Active calls of the source: *; ? = inconclusive; . = not tested or not shown. Only part of the results is shown (hit frequency here may not be typical).

SMILES | DUX4 inh | DUX4 inh difference | DUX4 inh control
C[C@@H]1CN([C@H](C)CO)C(=O)c2c(c3ccccc3n2C)-c2ccccc2CO[C@@H]1CN(C)Cc1ccc(F)cc1 | -35* | -26* | -8.8*
CO[C@H]1CN(C)C(=O)c2cc(NC(=O)C3CC3)ccc2OC[C@H](C)N(C(=O)c2ccncc2)C[C@@H]1C | -2 | -5 | 2.9
COc1ccc(-c2ccc3n(c2=O)C[C@H]2[C@H](CO)[C@@H](C(=O)N(C)C)[C@@H]3N2Cc2cncnc2)cc1 | 6 | 2 | 4.0
COc1ccc(S(=O)(=O)Nc2ccc3c(c2)[C@@H]2C[C@H](CC(=O)N(C)C)O[C@H](CO)[C@@H]2O3)cc1 | 3 | 1 | 1.8
O=C(C[C@H]1C[C@H]2c3cc(NC(=O)C4CCC4)ccc3O[C@H]2[C@H](CO)O1)NCCc1ccccc1 | ? | . | .
Cc1cccc(S(=O)(=O)N2CCCCN3[C@H](C2)[C@@H](c2ccc(C#C[C@H](C)O)cc2)[C@@H]3CO)c1 | ? | . | .
O=C(C[C@@H]1CC[C@H]2[C@@H](COC[C@H](O)CN2C(=O)c2ccc(F)cc2)O1)Nc1ccc(-c2ccccc2)cc1 | -7 | -8 | 0.9
C/C=C/c1ccc([C@@H]2[C@H](C#N)N(c3nc(CC)cs3)[C@H]2CO)cc1 | 2 | 3 | -1.3
C[C@@H]1CCCCO[C@H](CN(C)Cc2ccc(C(F)(F)F)cc2)[C@@H](C)CN([C@H](C)CO)C(=O)c2cc(NC(=O)c3ccccc3)ccc2O1 | -6 | 5 | -11
COc1ccc(C(=O)Nc2ccc3c(c2)C(=O)N(C)C[C@@H](OC)[C@@H](C)CN(C)[C@@H](C)CO3)cc1 | -3 | -1 | -2.0
CCC(=O)N1CC(=O)N2[C@H](CO)[C@@H](c3ccc(C#CC(C)C)cc3)[C@@H]2C1 | 7 | -3 | 10
CCNC(=O)[C@H]1[C@H](CO)[C@H]2Cn3c(ccc(C4=CCCCC4)c3=O)[C@H]2N1C(=O)c1cnccn1 | 6 | 16 | -9.8
COc1ccc(CN(C)C[C@@H]2OCc3cnnn3CCCC(=O)N([C@@H](C)CO)C[C@H]2C)cc1 | -3 | -3 | 0.8
O=C(N[C@H]1CC[C@H](CC(=O)N2CCOCC2)O[C@@H]1CO)c1cccc(F)c1 | 4 | 2 | 2.2
COc1ccc2c3c(n(C)c2c1)[C@H](CO)N(Cc1ccccc1)CC31CCN(C(=O)C2CC2)CC1 | ? | . | .

6 compounds out of the list, arranged by number of heavy atoms, lowest first:
SMILES | DUX4 inh | DUX4 inh difference | DUX4 inh control
C/C=C/c1ccc([C@@H]2[C@H](C#N)N(c3nc(CC)cs3)[C@H]2CO)cc1 | 2 | 3 | -1.3
CCC(=O)N1CC(=O)N2[C@H](CO)[C@@H](c3ccc(C#CC(C)C)cc3)[C@@H]2C1 | 7 | -3 | 10
COc1ccc(CN(C)C[C@@H]2OCc3cnnn3CCCC(=O)N([C@@H](C)CO)C[C@H]2C)cc1 | -3 | -3 | 0.8
CCNC(=O)[C@H]1[C@H](CO)[C@H]2Cn3c(ccc(C4=CCCCC4)c3=O)[C@H]2N1C(=O)c1cnccn1 | 6 | 16 | -9.8
CO[C@H]1CN(C)C(=O)c2cc(NC(=O)C3CC3)ccc2OC[C@H](C)N(C(=O)c2ccncc2)C[C@@H]1C | -2 | -5 | 2.9
O=C(C[C@@H]1CC[C@H]2[C@@H](COC[C@H](O)CN2C(=O)c2ccc(F)cc2)O1)Nc1ccc(-c2ccccc2)cc1 | -7 | -8 | 0.9

Single records (already shown). Order of values: DUX4 inh	DUX4 inh difference	DUX4 inh control
Listed for COc1ccc2c3c(n(C)c2c1)[C@H](CO)N(Cc1ccccc1)CC31CCN(C(=O)C2CC2)CC1 = ?	.	.
Listed for C/C=C/c1ccc([C@@H]2[C@H](C#N)N(c3nc(CC)cs3)[C@H]2CO)cc1 = 2	3	-1.3
Listed for O=C(C[C@@H]1CC[C@H]2[C@@H](COC[C@H](O)CN2C(=O)c2ccc(F)cc2)O1)Nc1ccc(-c2ccccc2)cc1 = -7	-8	0.9
Listed for COc1ccc(CN(C)C[C@@H]2OCc3cnnn3CCCC(=O)N([C@@H](C)CO)C[C@H]2C)cc1 = -3	-3	0.8

Additional records
SMILES | DUX4 inh | DUX4 inh difference | DUX4 inh control
CN1c2ccc(Br)cc2[C@H]2[C@H](CCN2S(=O)(=O)c2ccccc2)[C@@H]1CO | 7 | 2 | 5.1
CCNC(=O)[C@@H]1[C@@H](CO)[C@@H]2Cn3c(cccc3=O)[C@@H]2N1Cc1ccccc1Cl | -4 | -4 | 0.6
COc1cccc(-c2cccc(-c3nc(C(=O)NCc4ccc(Oc5ccccc5)cc4)cc4c3[C@@H](CCO)N(S(=O)C(C)(C)C)C4)c2)c1 (some centres not stated) | -4 | 2 | -6.4
Cc1ccccc1-c1ccc([C@H]2[C@H]3CN(C(=O)NC4CCCC4)CC(=O)N3[C@H]2CO)cc1 | -2 | 3 | -5.0
CC(C)(C)[S@@](=O)N1Cc2cc(C(=O)N3CCc4ccccc4C3)nc(-c3cccc(-c4cncnc4)c3)c2[C@H]1CCO | 3 | 3 | -0.4
C[C@@H]1CN([C@@H](C)CO)C(=O)c2c(c3ccccc3n2C)-c2ccccc2CO[C@@H]1CN(C)C(=O)Nc1ccc2c(c1)OCO2 | -9 | 0 | -9.2
N#C[C@@H]1[C@H](c2ccccc2C2=CCCC2)[C@H](CO)N1C(=O)C1CCC1 | 9 | -2 | 11
CC(C)COC(=O)N(C)C[C@@H]1OCc2ccccc2-c2ccccc2C(=O)N([C@H](C)CO)C[C@H]1C | 5 | -9 | 14
Cc1ccc(S(=O)(=O)N[C@@H]2CC[C@@H](CC(=O)NCc3ccncn3)O[C@H]2CO)cc1 | 2 | -5 | 6.6
C[C@@H]1CCCCO[C@@H](CN(C)S(=O)(=O)c2cn(C)cn2)[C@H](C)CN([C@H](C)CO)C(=O)c2cc(NS(=O)(=O)c3cccs3)ccc2O1 | 6 | 9 | -2.9
CC(C)NC(=O)N1[C@H](C#N)[C@H](c2ccc(C#CC3CCCCC3)cc2)[C@@H]1CO | 1 | -1 | 2.3
CCCNC(=O)N1CC2(CN(C(=O)CCC)C2)c2c(n(C)c3cc(OC)ccc23)[C@@H]1CO | 5 | 4 | 1.2
CO[C@@H](C(=O)N(C)C[C@@H]1OCc2ccccc2-c2c(n(C)c3ccccc23)C(=O)N([C@@H](C)CO)C[C@@H]1C)c1ccccc1 | ? | . | .
CO[C@H]1CN(C)C(=O)c2cc(NS(C)(=O)=O)ccc2OC[C@@H](C)N(C)C[C@@H]1C | 0 | -1 | 0.2
O=C(C[C@@H]1C[C@H]2c3cc(NC(=O)Nc4ccccc4F)ccc3O[C@H]2[C@H](CO)O1)NCCc1ccccc1 | ? | . | .
CN(C)CC#Cc1ccc([C@H]2[C@H](CO)N3C(=O)CN(C(=O)c4cccc(F)c4)C[C@@H]23)cc1 | 4 | 1 | 2.1
CCCC(=O)Nc1ccc2c(c1)C(=O)N(C)[C@@H]1CC[C@@H](CC(=O)NC3CCCC3)O[C@@H]1CO2 | 0 | -5 | 5.1
CN1CCCCN2[C@H](C1)[C@@H](c1ccc(-c3ccccc3)cc1)[C@@H]2CO | 17 | -6 | 23
COc1ccc2c3c([nH]c2c1)[C@H](CO)N(C)CC31CN(C(=O)NC(C)C)C1 | 14 | -3 | 17
CCCNC(=O)N1CC2(C1)[C@H](c1ccccc1)[C@@H](CO)N2C(=O)CC1CC1 | 12 | 8 | 4.2
C[C@H]1CN([C@@H](C)CO)C(=O)CCCn2nncc2CO[C@@H]1CN(C)Cc1ccc(C(=O)Nc2ccccc2N)cc1 | -6 | -6 | -0.5
C[C@@H]1CCCCO[C@H](CN(C)S(=O)(=O)c2cn(C)cn2)[C@@H](C)CN([C@@H](C)CO)C(=O)c2cc(N(C)C)ccc2O1 | 1 | -1 | 1.6
C[C@H](CO)N1C[C@H](C)[C@@H](CN(C)Cc2ccccc2C(F)(F)F)OCc2ccccc2-c2c(n(C)c3ccccc23)C1=O | -46* | -37* | -8.4*
O=C(C[C@@H]1CC[C@H]2[C@@H](COC[C@@H](O)CN2C(=O)c2ccc(F)cc2)O1)Nc1nccs1 | -1 | 2 | -2.7
Cc1ccccc1CN(C)C[C@H]1OCc2cn(nn2)CCCC(=O)N([C@H](C)CO)C[C@H]1C | -2 | -1 | -1.5
CCC(=O)Nc1ccc2c(c1)C(=O)N(C)[C@H]1CC[C@@H](CC(=O)N[C@@H](C)c3ccccc3)O[C@H]1CO2 | 3 | -2 | 5.1
Cc1noc(C)c1NC(=O)N(C)C[C@H]1OCc2cnnn2CCCC(=O)N([C@H](C)CO)C[C@@H]1C | 3 | 6 | -4.0
C[C@@H]1CN([C@@H](C)CO)C(=O)c2ccccc2-c2ccccc2CO[C@@H]1CN(C)Cc1ccccc1C(F)(F)F | ? | . | .
COc1ccccc1-c1cn(CC[C@@H]2CC[C@H](NC(=O)C3CCCCC3)[C@H](CO)O2)nn1 | 0 | 6 | -5.6
C/C=C/c1ccc([C@H]2[C@@H](CO)N3C(=O)CN(Cc4ccc(F)cc4)C[C@H]23)cc1 | 2 | -1 | 3.2
O=C(Nc1ccc(F)cc1)N1C[C@H]2[C@@H](c3ccccc31)[C@@H](CO)N2C(=O)Cc1ccccc1 | -2 | -3 | 1.2
CC(C)C#Cc1ccc([C@H]2[C@@H](CO)N3C(=O)CN(C(=O)NC4CCCC4)C[C@@H]23)cc1 | 3 | -1 | 3.9

Screening results from PubChem.
